Assay outcomes deposited in PubChem by PCMD.
Calb biofilm kill – mixtures killing C. albicans biofilm | C. albicans biofilm persisters + clotrimazole, fluorescence viability; primary screen in compound mixtures of four per well | inhibition, % at 7.6 µM | hit rate 0.02% among 120,000;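 active = inhibition above 30.3% in the primary screen of four-compound pools, then above 30% when the compound was retested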;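 also: compounds exposed to preformed 24 h biofilms for 48 h; the number belongs to the whole pool; some results filed as inactive read as strong as hits; inactives centre near 12; 0% = biofilm with clotrimazole alone and 100% = kill control; retested singly at about 60 µM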
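Incubation: 24 h biofilm formation, then 48 h compound exposure, 37 °C | Material: C. albicans biofilms | Buffer or medium: RPMI/MOPS medium, pH 7.0 | Measured by: 2-h Alamar Blue fluorescence, 535/590 nm excitation/emission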
An asterisk follows results filed as active.

SMILES	Calb biofilm kill
CC(C)C(=O)Nc1ccccc1C(=O)OCC(=O)c1ccc2c(c1)OCCO2	1
CCOC(=O)c1sc2nc(C)c([N+](=O)[O-])c(COC)c2c1N	11
O=C(c1ccc([N+](=O)[O-])cc1)n1nc(-c2ccccc2)nc1NCc1ccc(F)cc1	11
Cc1ccc(CNc2nc(-c3cccs3)nc3ccccc23)cc1	5
O=C(CCOc1ccccc1)Nc1cccc(S(=O)(=O)Nc2ccccc2Cl)c1	10
CCc1nnc(NS(=O)(=O)c2ccc(NC(=S)NC(=O)c3ccc(OC)cc3)cc2)s1	9
Cc1cc(SCC(=O)Nc2cccnc2Cl)nc2ccccc12	2
CC(=O)c1ccc(NC(=S)N2CC(C)CC(C)C2)cc1 (stereo not given)	4
Cc1ccccc1N=C/C=C1/C=C(c2ccccc2)OC(C)(C)O1	7
COc1cc(/C=C/C(=O)OC2CC3CCC2(C)C3(C)C)ccc1O (stereo not given)	11
CN(C)C(=S)Nc1ccc(Cl)cc1	6
CCC(=O)NC(Nc1sc2c(c1C(=O)OC)CCN(C)C2)(C(F)(F)F)C(F)(F)F	5
FC(F)(F)c1cnc(-c2cnc(-c3ccccn3)nc2)c(Cl)c1	19
CN(C)c1ccc(/C=N/OC(=O)Nc2ccccc2Cl)cc1	11
CCNC(=O)C(=O)NCC1OCCCN1S(=O)(=O)c1cccs1 (stereo not given)	25
COc1cc(C=O)ccc1OCc1ccccc1Br	12
COc1cc(OC)c2ccc(=O)oc2c1C(CCN1CCCC(C)C1)c1ccc2c(c1)OCO2 (stereo not given)	10
Fc1ccc(Nc2nnc(C(F)(F)F)s2)cc1	13
CCOC(=O)c1c(C2CC2)csc1NC(=O)COC(=O)CCS(=O)(=O)c1ccc(C)cc1	0
CCOC(=O)Cc1csc(NC(=O)c2cc(C)cc(C)c2)n1	13
O=C(CCN1C(=O)/C(=C/C=C/c2ccccc2)SC1=S)Nc1cccnc1	14
CC(=O)c1cn(CC(=O)Nc2cccc(C)c2C)c2ccccc12	1
Cc1[nH]c2ccccc2c1C(=O)C(=O)NCc1cccs1	-3
COc1cccc(C(C(=O)NC2CCCCC2)N(C(=O)c2cccs2)c2ccc3c(c2)OCO3)c1 (stereo not given)	16
COc1ccc(Br)cc1/C=N/Nc1ccc(Cl)c(C(=O)O)c1	5
(listing goes on)
SMILES	Calb biofilm kill
CSC(=Nc1ccccc1)Nc1ccccc1	31
CCOC(=O)C1CC(C)=C(C)CC1C(=O)O (stereo not given)	15
NC(=O)Cc1ccc(C(=O)c2ccc(Cl)cc2Cl)s1	12
CCCCNC(=S)Nc1ccc2cn[nH]c2c1	12
COc1ccc(C(=O)N(c2ccc(C)cc2)C2C=CS(=O)(=O)C2)cc1OC (stereo not given)	12
Cn1nc(C(=O)OCC(=O)Nc2ccc3ccccc3c2)c2ccccc2c1=O	14
COc1ccccc1NC(=O)C1=C(C)NC(=O)NC1c1ccc(C)s1 (stereo not given)	14
CCc1ccc(OCCCC(=O)Nc2ccc(S(N)(=O)=O)cc2)cc1	14
CN(CC(=O)NCCc1ccc(F)cc1)Cc1cccc(Cl)c1	14
Cc1noc(C)c1S(=O)(=O)N(C)Cc1ccccc1	-3
CCNCCC(=O)N1c2ccccc2Sc2ccc(NC(=O)OCC)cc21	9
O=C(CN1N=C(c2ccc(Cl)cc2)CCC1=O)NCc1cccnc1	20
COc1cccc(CC2(CO)CCCN(Cc3cn[nH]c3C3CCCCC3)C2)c1 (stereo not given)	10
COc1ccc(NC(=O)COC(=O)Cc2c(F)cccc2Cl)cc1	10
NNC(=S)NCc1ccco1	27
CC(=O)Nc1ccc(NC(=O)COc2c(C)cc(Br)cc2C)cc1	6
COc1cc(CNC(=O)c2cccc(COc3ccc(Cl)cc3)c2)cc(OC)c1	9
Cc1cc(Oc2ccc(Cl)cc2)nc(SCC(=O)c2ccccc2)n1	11
O=C(COC(=O)/C=C/c1ccco1)NCc1ccc2c(c1)OCO2	19
Cc1ccc(NC(=O)CCC(=O)N/N=C/c2ccco2)c(C)c1	15
CN(C)S(=O)(=O)Oc1cc(Cl)ccc1C(=O)Nc1ccc(F)cc1F	18
O=C(Cc1ccccc1)NCC1OCCc2ccccc21 (stereo not given)	25
Cc1ccc(S(=O)(=O)NCC(=O)OCC(=O)N(Cc2ccccc2)C(C)(C)C)cc1	17
CC1CC(C)(C)n2c(O)c(N=NC(N)=S)c3cccc1c32 (stereo not given)	21
COc1ccc2c(c1OC)C(=O)OC2Nc1nc2ccccc2s1 (stereo not given)	9

Copied from above (3 entries):
SMILES	Calb biofilm kill
CC(C)C(=O)Nc1ccccc1C(=O)OCC(=O)c1ccc2c(c1)OCCO2	1
CCOC(=O)c1sc2nc(C)c([N+](=O)[O-])c(COC)c2c1N	11
O=C(c1ccc([N+](=O)[O-])cc1)n1nc(-c2ccccc2)nc1NCc1ccc(F)cc1	11

(cont.)
SMILES	Calb biofilm kill
CN(c1ccc(C(=O)N2CCN(Cc3ccc4c(c3)OCO4)CC2)cc1)S(C)(=O)=O	14
COc1ccc2c(OC)cc(=O)n(C)c2c1	6
Cc1cc(C)nc(/N=C(\N)Nc2ccc(S(=O)(=O)O)cc2)n1	15
CC(=O)Nc1nc(NC(=O)/C=C/c2ccccc2)n(-c2ccccc2)n1	11
C/C(Cn1cnc([N+](=O)[O-])n1)=N\NC(=O)c1ccccc1O	50
Cc1ccc(C(=O)Cn2cccn2)cc1	24
O=C(c1cnn2c1NC(c1ccc(Br)cc1)CC2C(F)(F)F)N1CCN(C23CC4CC(CC(C4)C2)C3)CC1 (stereo not given)	16
CC1CCCN(S(=O)(=O)c2ccc(C(=O)Nc3ccccc3-c3nc4ccccc4[nH]3)cc2)C1 (stereo not given)	14
NC(=O)c1sc2nc3c(c(-c4cccs4)c2c1N)CCCC3	18
COc1ccc(N2CCN(c3ccc(C(N)=O)cc3[N+](=O)[O-])CC2)cc1	9
CN(C)S(=O)(=O)c1ccc(NC(=O)C2CCCN(C(=O)c3ccc(Cl)cc3)C2)cc1 (stereo not given)	18
C=CCN1C=C2C(=O)C(C)(OC(=O)CCc3ccccc3)C(=O)C=C2C=C1c1ccc(C#N)cc1 (stereo not given)	20
Cc1ccccc1/C=N/Nc1nc2ccccc2[nH]1	22
CCCSc1nnc(CSc2nc(C)cc(C)n2)n1C	10
CC(C)[C@H](NC(=O)NCc1ccc(F)cc1)C(=O)O	15
O=C(CNC(=O)c1ccccc1F)NCCOc1cccc(Cl)c1Cl	11
Clc1cccc(C2CCN(Cc3nc(CC4CC4)no3)C2)c1 (stereo not given)	-13
COc1ccc(Cc2nnc(N=Nc3c(O)[nH]c4ccc(Br)cc34)[nH]c2=O)cc1	4
CC(NC(=O)C(=O)N/N=C\c1ccc([N+](=O)[O-])cc1)c1ccccc1 (stereo not given)	14
Cc1nn(Cc2noc(C(=O)NCc3ccc(F)cc3)n2)c(C)c1Br	18
Cc1c(NC(=O)COC(=O)COc2ccc(Nc3ccccc3)cc2)c(=O)n(-c2ccccc2)n1C	9
COc1cc2c(cc1OC)CN(C(=S)Nc1ccc(OC(F)F)cc1)CC2	4
Cc1ccc(NC(=S)NNC(=O)C2CC2c2ccc(C)cc2)cc1 (stereo not given)	9
CCc1cccc2c(C(=O)COC(=O)c3ccc(O)cc3)c[nH]c12	8
COCCN(C(=S)Nc1cc(C)ccc1C)C(C)c1cccnc1 (stereo not given)	13
Additional records follow:
SMILES	Calb biofilm kill
Cc1ccc2nc(NC(=O)/C=C/c3ccc4c(c3)OCO4)sc2c1	8
C/C(=N\NC(=O)CCc1ccc(S(=O)(=O)N2CCOCC2)cc1)c1ccc(OC(F)F)cc1	5
Cc1ccc(CN(CCO)CCO)cc1	16
Cc1ccc2nc(Cl)c(/C=N/Nc3nc(C)cc(C)n3)c(=O)n2c1	17
CCOc1ccc(S(=O)(=O)Nc2nc3ccccc3nc2Nc2ccc(N3CCOCC3)cc2)cc1	7
Oc1ccccc1Oc1c(F)c(F)nc(N2CCCC2)c1F	7
CC1(C)CC(N2CCN(C(c3ccccc3)c3ccccc3)CC2)=CC(=[N+]2CCCCC2)C1	12
CC(C)NC(=O)CSc1nc(N)c(NC(=O)c2ccco2)c(=O)[nH]1	4
O=C(Nc1ccc(N2CCOCC2)cc1)c1ccncc1	7
CCOC(=O)CC(C)(C)/C(C)=N/Nc1ccc([N+](=O)[O-])cc1[N+](=O)[O-]	12
CC1=NNC(=O)C(CC(=O)Nc2ccc(Cl)c(Cl)c2)C1 (stereo not given)	18
Fc1ccc(CNC(=S)NC2CCCC2)cc1	13
CCOc1cccc2cc(C(=O)NCCC3=CCCCC3)c(=O)oc12	17
CCN(CC)CCNC(=S)Nc1ccc(Cl)cc1	19
CC1CCCC(NC(=O)CSc2ccc(F)cc2)C1C (stereo not given)	14
NNC(=O)CCCNc1ncc(C(F)(F)F)cc1Cl	11
COc1cc(CN2CCNC(=O)C2CC(=O)NCCC2=CCCCC2)cc(OC)c1 (stereo not given)	13
O=C(Nc1ccccc1F)c1ccc(OCc2ccccc2)cc1	13
CC1CCCC(NC(=O)CSC2CCCCC2)C1C (stereo not given)	12
CCc1cc(OCCN(C)C)ccc1Cl	-9
O=C(Cc1cccc2ccccc12)NN1C(=O)C2C(C1=O)C1C=CC2C12CC2 (stereo not given)	17
Cc1ccc(NC(=S)NC2CC3CCCC(C2)N3Cc2ccco2)cc1 (stereo not given)	15
Cc1ncc([N+](=O)[O-])n1CC(O)CCl (stereo not given)	14
CCc1cccc(C)c1NC(=S)N(CCN(C)C)Cc1cccs1	17
CN(c1ccccc1)S(=O)(=O)c1cccc(NC(=O)Cn2cnc3c2c(=O)n(C)c(=O)n3C)c1	41

5 compounds already listed, arranged by length of the SMILES, high to low.
SMILES	Calb biofilm kill
COc1cc(CN2CCNC(=O)C2CC(=O)NCCC2=CCCCC2)cc(OC)c1 (stereo not given)	13
CC1=NNC(=O)C(CC(=O)Nc2ccc(Cl)c(Cl)c2)C1 (stereo not given)	18
CCc1cccc(C)c1NC(=S)N(CCN(C)C)Cc1cccs1	17
Oc1ccccc1Oc1c(F)c(F)nc(N2CCCC2)c1F	7
CC1CCCC(NC(=O)CSC2CCCCC2)C1C (stereo not given)	12

Following part
SMILES	Calb biofilm kill
O=C(COC(=O)COc1ccccc1[N+](=O)[O-])NC1CCCC1	13
Cc1cc(C)cc(NC(=O)c2ccc(S(=O)(=O)C(F)F)cc2)c1	9
CCOC(=O)C(/C(C)=N/NC(=O)C1CC1c1ccccc1)C(C)C (stereo not given)	12
CCOC(=O)c1sc2nc3c(cc2c1N)C(=O)CC(C)(C)C3	7
CCOc1cccc(-c2nnc3sc(-c4ccco4)nn23)c1	8
CC(C)(C)OC(=O)NCCc1nnc(SCc2ccccc2)o1	27
Cc1ccc(CC2C(=O)N(c3ccc(C)cc3)C(=O)C2C)cc1 (stereo not given)	10
COc1ccc(NC(=O)CSc2nnnn2Cc2ccccc2)cc1	5
O=C(c1ccccc1NS(=O)(=O)c1ccccc1[N+](=O)[O-])N1CCOCC1	0
O=C1C2N=NN(CC(=O)N3N=C(c4cccc5ccccc45)CC3c3ccccc3)C2C(=O)N1c1ccccc1 (stereo not given)	8
Cc1ccc(-n2c(C)cc(/C=C3\NC(=O)NC3=O)c2C)c(C)c1	9
COc1ccc(S(=O)(=O)NC(C)CCc2ccccc2)cc1 (stereo not given)	15
O=C(C1CC1)N1N=C(c2ccncc2)CC1(O)C(F)(F)F (stereo not given)	19
Cc1ccccc1NC(=O)COc1ccc(Br)cc1CNCCCO	7
CCN1CCN(Cc2ccc(NC(=O)c3ccc(C)c(NC(=O)c4nccnc4N)c3)cc2C(F)(F)F)CC1	9
Cc1cc(=S)c2ccccc2[nH]1	11
CCN(CC)/C(N)=N/c1nc(C)cc(C)n1	12
Fc1ccc2nc(N3CCCC3)sc2c1	6
CCOC(=O)c1c(C)[nH]c(C(=O)COC(=O)CNC(=O)c2ccc(Br)cc2)c1C	3
CC(=O)C(Cl)C(=O)Nc1ccccc1 (stereo not given)	8
O=C(NCC1CCCO1)c1ccc(CNS(=O)(=O)c2cccc(Cl)c2)cc1 (stereo not given)	14
Fc1ccccc1CN(CCN1CCOCC1)C(=S)Nc1ccccc1Cl	14
c1ccc(CSCc2nc3ccccc3[nH]2)cc1	20
NC(=O)C(=O)NN=C1C2CC3CC(C2)CC1C3	8
O=C(CCCc1ccccc1)Nc1cccnc1Cl	18

Looked up by compound from the list above:
SMILES	Calb biofilm kill
Cc1cc(SCC(=O)Nc2cccnc2Cl)nc2ccccc12	2
O=C(COC(=O)COc1ccccc1[N+](=O)[O-])NC1CCCC1	13
CCOC(=O)C(/C(C)=N/NC(=O)C1CC1c1ccccc1)C(C)C (stereo not given)	12
Cc1ccc(-n2c(C)cc(/C=C3\NC(=O)NC3=O)c2C)c(C)c1	9
Cc1ncc([N+](=O)[O-])n1CC(O)CCl (stereo not given)	14
CCc1cc(OCCN(C)C)ccc1Cl	-9
O=C1C2N=NN(CC(=O)N3N=C(c4cccc5ccccc45)CC3c3ccccc3)C2C(=O)N1c1ccccc1 (stereo not given)	8

Other records follow.
SMILES	Calb biofilm kill
COc1ccc(S(=O)(=O)N(C)CC(=O)Nc2ccc(C)cc2)cc1OC	5
COc1ccc(-c2cc(C(=O)OC(C)C(=O)Nc3c(C)n(C)n(-c4ccccc4)c3=O)c3ccccc3n2)cc1 (stereo not given)	18
COc1cc(OC)c(/C=N/NC(=O)Cn2nc([N+](=O)[O-])cc2C)c(OC)c1	24
Cc1ccc(C2C(C#N)=C(N)Oc3c2oc(CO)cc3=O)o1 (stereo not given)	14
Cc1ccc(S(=O)(=O)N2CCOCC2)cc1NC(=O)CNCC1CCCCC1	19
O=C(c1ccc(Cl)c([N+](=O)[O-])c1)N(Cc1ccccc1)C1CCS(=O)(=O)C1 (stereo not given)	8
Cc1[nH]n(-c2ccc(Cl)cc2)c(=O)c1/C=N/n1c(C)nc2ccccc2c1=O	14
N#Cc1nnn(-c2cc(Cl)cc(Cl)c2)c1N	17

This is a subset, so the mix of outcomes need not match the whole.
